Source: PubChem BioAssay (ICCB-Longwood Screening Facility, Harvard Medical School)
GIV Gai3 FP: blocks GIV peptide binding to rat Galpha-i3 | P08753 | Galpha-i3/FITC-GIV peptide fluorescence polarization, 90 min; hits give low values; scaled: aluminum fluoride 0%, vehicle 100% | percent of control (FP), % (test concentration not listed) | hit rate 0.42% among 210,000 | AID 1224905;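 active means replicate mean at 85% of control or lower, very high polarization wells dropped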;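 further: wells of about 15 µL received 100 nL stock; the first replicate is given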
Target sequence (P08753 whole entry, looked up): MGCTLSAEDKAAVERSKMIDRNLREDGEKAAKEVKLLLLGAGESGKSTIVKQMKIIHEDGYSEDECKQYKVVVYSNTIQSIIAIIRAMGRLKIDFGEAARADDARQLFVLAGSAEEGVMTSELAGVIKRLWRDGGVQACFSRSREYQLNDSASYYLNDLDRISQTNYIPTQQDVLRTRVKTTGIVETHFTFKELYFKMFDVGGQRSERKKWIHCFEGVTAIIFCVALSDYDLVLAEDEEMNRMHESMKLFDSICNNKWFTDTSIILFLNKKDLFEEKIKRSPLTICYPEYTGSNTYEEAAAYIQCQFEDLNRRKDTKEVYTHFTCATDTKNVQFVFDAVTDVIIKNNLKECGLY
Sa growth inh: blocks Staphylococcus aureus growth | hit rate 0.53% among 170,000 | S. aureus RN4220 growth, OD600, 20 h, 42 °C; hits give low values | AID 720641 | relative growth, % (no concentration beside the values);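 active means growth at 42 °C up to 50% and 20 or more points under that at 30 °C, or under 10% at both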;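 further: 300 nL library stock went into each well; scaled to the means of positive and negative controls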
HCMV UL50-53 inh: inhibitors of HCMV UL50-UL53 nuclear egress complex interaction | HTRF UL50-UL53 interaction, normalized percent inhibition | inhibition, % (test concentration not listed) | hit rate 0.15% among 190,000 | AID 1918969;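 active means both replicates at 50% or more, plus weaker picks with an unusually low signal ratio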;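 further: stock transfer was 100 nL into about 20 µL; 0% = negative control wells and 100% = wells with untagged competitor protein; inactives centre near -12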
Sa growth inh second temp: also measured in Sa growth inh; calls as there; relative growth, %; measured here: growth at 30 °C;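 optical density after 20 h as mean of two plates; 100% = untreated growth and lower means inhibition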
The depositor's hits bear a star; . = no result given; & = joins results of further samples.

Values run as follows: GIV Gai3 FP, Sa growth inh, Sa growth inh second temp, HCMV UL50-53 inh
Cc1cc(C(=O)Nc2ccccc2N2CCCCC2)c(C)o1
→ 105, 94, 83, -28
O=C(Oc1ccccc1Cl)C1CCCCC1
→ 105, 107, 82, -5
CCOC(=O)C1=C(C)NC(SC)=NC1c1cccs1 (configuration not stated)
→ 103, 101, 85, -21
NNC(=O)Cc1ccccc1
→ ., 103, 89, 2
CN(C)C1(CNC(=O)C2CCN(S(=O)(=O)c3ccc4c(c3)OCCCO4)CC2)CCCCC1
→ ., 85, 89, -24
COc1cc(/C=C/C(=O)Nc2cccc3c(=O)[nH][nH]c(=O)c23)cc(S(=O)(=O)N2CCc3ccccc32)c1OC
→ ., 79, 38, -23
CCc1ccc(NC(=O)c2cc3c(COC(C)=O)cnc(C)c3oc2=O)cc1
→ 102, 111, 102, .
Cc1cccc(-n2c(SCC(=O)NC3(C#N)CCCC3)nc3ccccc3c2=O)n1
→ ., 78, 85, -14
Cc1ccc(-c2c(NCc3ccccn3)c(=O)c2=O)cc1
→ 115, ., ., -49
O=C(NCc1c(Cl)cccc1Oc1ccccc1)c1ccccc1
→ 101, 110, 88, -24
O=C1c2ccccc2-c2nn(C(=O)c3cccnc3)c3cccc1c23
→ 101, 106, 90, -29
COc1cc(NS(=O)(=O)c2ccc(Nc3nc(-c4sc(NC(C)=O)nc4C)cs3)cc2)nc(OC)n1
→ 104, ., ., -28
CC(C)N1CCc2c(sc(NC(=O)c3ccc(S(=O)(=O)N(C)C4CCCCC4)cc3)c2C(N)=O)C1
→ 118, 134, 93, .
Cc1cc(C(=O)CSc2ncc(-c3ccccc3)n2C)c(C)n1-c1ccc(S(N)(=O)=O)cc1
→ ., 109, 95, -2
CCN(CC)C(=O)CSc1nc2cc(-c3ccccc3)[nH]c2c(=O)n1Cc1ccccc1
→ 111, ., ., -4
CCOC(=S)SCc1cc(F)cc2c1OCOC2
→ 103, 109, 96, 6
Cc1ccc2scc(N3CCN(c4ccc(F)cc4)CC3)c(=O)c2c1
→ 110, 94, 85, .
CCCN(CCC)C(=O)CSc1nc2ccncc2[nH]1
→ 102, 102, 84, -12
COc1cc(NC(=O)c2nn(C)c3c2CS(=O)(=O)c2ccccc2-3)cc(OC)c1
→ 105, 96, 94, 1
CCOc1ccccc1N1CCN(Cn2nc(-c3ccco3)oc2=S)CC1
→ ., 73, 103, -32
CSc1nsc(SC)c1C(=O)NC(=O)OCc1ccccc1
→ 96, 95, 71, -1
Cc1ccc(S(=O)(=O)N(CC(=O)O)C2CCCCCC2)cc1
→ ., 117, 98, -19
CN(CCCNC(=O)CC1CCN(S(=O)(=O)c2ccccc2)CC1)C1CCCCC1
→ 97, ., ., -34
O=C(O)c1ccccc1C(=O)N1CCN(Cc2ccncc2)CC1
→ 105, 96, 85, -12
Cc1cc(C(=O)COC(=O)CSc2nc3ccccc3o2)c(C)n1C
→ ., 91, 92, -15
CC1CCC(NC(=O)c2ccc3c(c2)N(Cc2ccccc2F)C(=O)c2ccccc2S3)CC1 (configuration not stated)
→ 103, 89, 96, .
Cc1cccc(N=C=S)c1C
→ ., 102, 93, -29
COc1ccccc1/C=C/c1nc(C#N)c(N2CCCCC2)o1
→ 103, 114, 81, -30
CCCn1c(=O)c2ccc(C(=O)NC(C)C)cc2n2c(=O)n(CC(=O)Nc3ccc(C)cc3)nc12
→ 111, ., ., -10
Cc1ccc(C)c(CN2C(=O)c3ccccc3Sc3ccc(C(=O)NCc4ccc5c(c4)OCO5)cc32)c1
→ 105, 110, 97, .
CN1CCN(C2(CNC(=O)c3cccs3)CCCCC2)CC1
→ 100, ., ., -16
COCc1nc2ccccc2n1CC(=O)N(c1ccccc1)C(C)C
→ 104, ., ., -10&-23
Cc1cc(NC(=O)CN2C(=O)c3cccnc3Sc3ccccc32)ccc1Br
→ 100, 82, 92, .
Cc1nc2ccccc2c2c1C(=O)N(c1ccc(C(=O)OC(C)C(=O)c3ccccc3)cc1)C2=O (configuration not stated)
→ 102, ., ., -17
CN(C)CCNC(=O)c1ccc2c(=O)n3c(nc2c1)CCCCC3
→ 108, 102, 91, 12
Cc1nn(-c2ccccc2)c2c1C1(C)CC(C)(O2)c2c(C)nn(-c3ccccc3)c2O1
→ 113, 94, 95, 5
COc1ccc(C2=Nc3ccccc3SC(c3ccccc3)C2)cc1 (configuration not stated)
→ 108, 97, 101, 12
Cc1cc(O)cc(C)c1Cl
→ ., 102, 103, -10
CCS(=O)(=O)c1ccc(O)c(NC(=O)CC(C)(C)CC(=O)O)c1
→ 105, 86, 86, -34
CC1CC1C(=O)OCc1ccc(Cl)cc1Cl (configuration not stated)
→ ., 93, 95, -4

Molecules shown so far containing a furan ring, fused or not:
Values run as follows: GIV Gai3 FP, Sa growth inh, Sa growth inh second temp, HCMV UL50-53 inh
Cc1cc(C(=O)Nc2ccccc2N2CCCCC2)c(C)o1
→ 105, 94, 83, -28
CCOc1ccccc1N1CCN(Cn2nc(-c3ccco3)oc2=S)CC1
→ ., 73, 103, -32

Following part
Values run as follows: GIV Gai3 FP, Sa growth inh, Sa growth inh second temp, HCMV UL50-53 inh
CCCSc1ncc(Cl)c(C(=O)N2CCN(c3ccc(OC)cc3)CC2)n1
→ 106, 98, 102, 3
O=C(CSc1nc2c(sc3ccccc32)c(=O)n1-c1ccccc1)N1CCCC1
→ 98, 92, 91, .
COc1cc(-c2cc(-c3ccccc3)nc(SCC(=O)O)c2C#N)cc(OC)c1OC
→ 104, ., ., -32
COc1cccc(C(=O)/C=C\Nc2ccc(S(=O)(=O)Nc3nc(C)cc(C)n3)cc2)c1
→ 105, ., ., -79
O=C(Nc1ccccc1C(F)(F)F)C1(S(=O)(=O)c2ccc(Cl)cc2)CC1
→ 98, 101, 81, 4
NC(=S)Cc1nnc2n1CCCCC2
→ ., 102, 95, -37
CCOC(=O)Cn1c(=O)oc2cc(S(=O)(=O)N(CC)c3ccc(C)c(C)c3)ccc21
→ 111, 114, 105, -8
CN(C)S(=O)(=O)c1cccc(CSc2nnc(-c3ccccc3Cl)n2C)c1
→ ., 90, 97, -3
Cc1cc(C)c(NC(=O)COc2ccc3c(C)cc(=O)oc3c2)c(C)c1
→ 101, 106, 94, -3
O=C(Nc1cc(-c2nc3ccccc3o2)ccc1Cl)c1cc([N+](=O)[O-])ccc1N1CCOCC1
→ 108, 84, 91, -21
O=C(Cc1nc2ccccc2[nH]1)c1cccs1
→ ., 53, 15, 38
COc1ccc2c(CC(=O)N3CCCSc4ccccc43)coc2c1
→ ., 96, 71, -15
COc1ccc(S(=O)(=O)N2CCN(Cc3ccccc3)CC2)cc1-c1noc(C(C)(C)C)n1
→ 113, ., ., -28
O=C(C1CCC1)N1CCCN(c2nc3cc(Cl)ccc3n3cccc23)CC1
→ 101, ., ., -3
CC1(C)Cc2c(sc3[nH]c(=S)n(-c4ccc(Br)cc4)c(=O)c23)CO1
→ 103, ., ., -2
O=c1[nH]c(NN=C2CCCCC2)nc2sc3c(c12)CCCC3
→ 103, 91, 93, -15
O=C(NCCC1=CCCCC1)C1CCCN(C(=O)c2cc(-c3ccccn3)n[nH]2)C1 (configuration not stated)
→ 104, ., ., -18
CCOC(=O)c1oc2ccc(Cl)cc2c1NC(=O)CCCN1C(=O)c2ccccc2C1=O
→ ., 96, 85, -10
COC(=O)C1=C(C)N(c2ccc(C)cc2)C(=O)/C1=C\c1ccc2c(c1)OCO2
→ 113, 97, 92, -14
O=C(CSc1nnc(-c2ccccc2)n1-c1ccccc1)NC(=O)CN1CCCC1=O
→ ., 97, 84, -34
CCCNS(=O)(=O)c1cc2c(cc1C)N(C)CCO2
→ 105, 87, 88, .
CCc1ccc2[nH]c(=O)c(C(c3nnnn3C(C)(C)C)N3CCc4ccccc4C3)cc2c1 (configuration not stated)
→ ., 96, 84, -14
C=CCN(C(=O)CSc1nc2[nH]ncc2c(=O)n1-c1cccc2ccccc12)c1ccccc1
→ 100, 89, 89, .
CN(C)/C=N/c1c(C#N)cnn1-c1ncnc2sc3c(c12)CCC3
→ 101, 91, 82, .
CC(=O)Oc1cc2c(C(=O)NCCN3CCOCC3)c(C)oc2c2ccccc12
→ 103, 93, 97, -7
CCOC(=O)C1=C(C)N=c2s/c(=C3\C(=O)N(C(C)=O)c4ccccc43)c(=O)n2C1c1cccc([N+](=O)[O-])c1 (configuration not stated)
→ 106, ., ., -20
CCOC(=O)Cn1c(=O)oc2cc(S(=O)(=O)Nc3cc(C)ccc3OC)ccc21
→ 109, 106, 98, 3
CCn1c2c(c3cc(F)ccc31)CCCC2=O
→ 106, 92, 94, 2
COC(=O)CC1=NN(c2ccccc2)C(=O)C1
→ ., 83, 73, -16
COc1cc(C2C(=O)N(C3CCCCC3)CC(=O)N2C2CCCC2)ccc1OC(C)C (configuration not stated)
→ 102, 96, 90, .
Cc1c(Cl)cccc1NC(=O)CCCn1nc(C)c2nn(-c3ccccc3)c(-n3cccc3)c2c1=O
→ 104, ., ., -12
Cc1cc(C)cc(N2C(=O)CN(C3CCCC3)[C@H]3CS(=O)(=O)C[C@H]32)c1
→ 107, ., ., -25
COc1ccccc1CC(=O)c1ccc(O)cc1O
→ 106, 105, 78, 0
O=C(NC(C(=O)N1CCOCC1)C12CC3CC(CC(C3)C1)C2)C1CCCCC1 (configuration not stated)
→ 102, 105, 98, -11
C/C(=N\N)c1c(-c2ccccc2)c2cc(Cl)ccc2[nH]c1=O
→ 106, 95, 82, 4
COc1cccc(CNCc2cccnc2)c1OCc1ccccc1F
→ 98, 92, 86, -5
COc1ccccc1C(=O)NCCSc1c(C)[nH]c2ccccc12
→ 101, 97, 74, 1
CCOc1ccc(NC(=O)c2ccc3c(SCC(=O)O)c4c(nc3c2)CCCC4)cc1
→ 99, 107, 91, -29
Nc1nonc1/C(=N/OC(=O)c1ccccc1)N1CCOCC1
→ 105, 106, 115, 1
CCOc1cc(C(=O)CCC(=O)O)ccc1O
→ 98, 82, 88, -28

3 compounds out of the list above, arranged by their value in Sa growth inh, highest first.
mol	GIV Gai3 FP	Sa growth inh	Sa growth inh second temp
CCOC(=O)Cn1c(=O)oc2cc(S(=O)(=O)Nc3cc(C)ccc3OC)ccc21	109	106	98
O=C(Nc1ccccc1C(F)(F)F)C1(S(=O)(=O)c2ccc(Cl)cc2)CC1	98	101	81
Cc1cc(C(=O)Nc2ccccc2N2CCCCC2)c(C)o1	105	94	83

(listing goes on)
Values run as follows: GIV Gai3 FP, Sa growth inh, Sa growth inh second temp, HCMV UL50-53 inh
O=C1CCC(=O)N1c1cccnc1
→ 100, 101, 74, -5
O=C1COc2ccc(S(=O)(=O)N3CCCC(C(=O)N4CCCCC4)C3)cc2N1 (configuration not stated)
→ 107, ., ., 2
Cn1c(C(O)C(F)(F)F)nc2ccccc21 (configuration not stated)
→ ., 97, 88, -12
CSC(=Nc1ccccc1)C(C#N)c1nc2ccccc2[nH]1 (configuration not stated)
→ 107, 109, 97, 7
Cc1cc2c(=O)n(CC(=O)N3CCCCCC3)cnc2s1
→ ., 117, 86, 2
CCOc1ccc2nc(N3CCC(C(=O)Nc4cccnc4)CC3)sc2c1
→ 103, 104, 75, 3
Cc1nnc2ccc(N3CCC(C(=O)NCc4ccccc4)CC3)nn12
→ 97, ., ., -19
CN(C)c1ccc(C(CNC(=O)c2ccccc2Cl)N(C)C)cc1 (configuration not stated)
→ 99, ., ., -20
COc1ccccc1CNC(=O)C1CCCN(c2nn3cc(-c4ccc(F)cc4)nc3s2)C1 (configuration not stated)
→ 99, 100, 91, .
O=C(NCc1cccnc1)c1cc(-c2cccc(Br)c2)nc2ccccc12
→ 101, 104, 80, .
COc1ccc(C2c3c(-c4ccccc4)n[nH]c3C(=O)N2c2ccc(C(=O)O)cc2)c(OC)c1 (configuration not stated)
→ 104, 94, 73, -17
c1ccc(-c2nnc(-c3ccc4c(c3)OCO4)nc2-c2ccccc2)cc1
→ ., 82, 89, -21
O=C(NCc1ccc2c(c1)OCO2)C1CCN(c2cc(-c3cccc(F)c3)ncn2)CC1
→ 101, ., ., -10
Clc1ccc(Cl)c(-c2ccc(CNCc3ccncc3)o2)c1
→ 99, ., ., 3
CCC1CCc2c(sc(NC(=O)CN3CCC4(CC3)OCCO4)c2C#N)C1 (configuration not stated)
→ 109, 105, 106, 9
COc1ccc(CN(C)c2ccc(-c3nc(-c4ccccc4)no3)cc2[N+](=O)[O-])cc1
→ 102, 97, 82, -21
O=c1c2sc3ccccc3c2n(Cc2cccc(C(F)(F)F)c2)c(=O)n1Cc1ccco1
→ 103, 94, 81, -2
Cc1cc(=O)[nH]c(N2CCOCC2)n1
→ 99&103, 102&110, 87&81, -11&-25
Cc1[nH]c(C(=O)Nc2ccc(F)c(Cl)c2)c(C)c1S(=O)(=O)N1CCCCC1
→ 106, ., ., -40
COc1cccc(C(=O)Nc2nc3nc(-c4ccccc4)cc(=O)n3[nH]2)c1
→ 94, 81, 91, -3
